Ecoli rRNA inh = inhibits bacterial ribosomal RNA function over humanized ribosomes | GFP signal change (wild-type ribosome), % (no concentration beside the values) | actives 1.6% (n = 350,000) | E. coli WT GFP vs humanized-ribosome RFP mutants, fluorescence, 24 h; hits give low values; DMSO median 0, no signal -100 | AID 720706;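 active = significant combined selectivity score with lowered wild-type GFP, culture density cut under 30%, mutant RFP and density less affected; inactive = any of these conditions unmet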; also: one replicate is shown; some compounds called inactive have numbers as strong as hits
MLL AF4-AF9 inh = inhibitors of human MLL-AF4/AF9 interaction; inhibition, % at 10 µM; actives 0.47% (n = 350,000); AID 651704; AlphaScreen, biotin-AF4 peptide binding to FLAG-AF9; P42568;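 active = every replicate reaching a set inhibition limit, whatever the replicate mean, cut at about 25% in these data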;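 also: 0% = plate neutral control median and 100% = total signal loss; the record names both 10 and 1 µM as test concentration; the first replicate is given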
Target sequence (P42568 whole entry, looked up): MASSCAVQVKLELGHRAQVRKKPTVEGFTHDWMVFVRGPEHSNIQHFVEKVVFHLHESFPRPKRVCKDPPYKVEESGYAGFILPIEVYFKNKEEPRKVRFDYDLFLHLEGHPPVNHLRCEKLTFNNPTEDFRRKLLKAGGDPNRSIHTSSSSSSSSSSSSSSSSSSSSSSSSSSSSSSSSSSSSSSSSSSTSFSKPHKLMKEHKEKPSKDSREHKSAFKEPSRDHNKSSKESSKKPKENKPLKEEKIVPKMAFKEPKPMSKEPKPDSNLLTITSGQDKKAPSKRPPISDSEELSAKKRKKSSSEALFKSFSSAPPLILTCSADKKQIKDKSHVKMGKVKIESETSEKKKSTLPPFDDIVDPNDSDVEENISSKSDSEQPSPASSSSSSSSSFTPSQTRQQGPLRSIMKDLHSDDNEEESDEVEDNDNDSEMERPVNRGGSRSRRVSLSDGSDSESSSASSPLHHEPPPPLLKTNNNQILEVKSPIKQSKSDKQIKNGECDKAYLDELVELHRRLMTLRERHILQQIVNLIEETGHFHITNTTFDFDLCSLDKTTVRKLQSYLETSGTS
Ecoli rRNA inh OD600 = also measured in Ecoli rRNA inh; calls as there; OD600 change, %; measured here: OD600 growth;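 optical density of the mix in the first replicate; 0 = DMSO median and -100 = no signal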
Ecoli rRNA inh RFP = second read-out of Ecoli rRNA inh, no call of its own (marks repeat the call); RFP signal change, %; measured here: RFP humanized mutant strains;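 first replicate; 0 = DMSO median and -100 = no signal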
* = called active by the depositor; & = joins results of further samples. These rows are one share of the data; rates above refer to the full screens.

cpd	Molecule	Ecoli rRNA inh	Ecoli rRNA inh RFP	Ecoli rRNA inh OD600	MLL AF4-AF9 inh
1	CCCN1[C@@H]2c3ccc(C4=CCCCC4)c(=O)n3C[C@H]1[C@H](CO)[C@H]2C(=O)NCCOC	-2.5	2.5	0.5	-0.7
2	CN(C)CC#Cc1cccc(-c2nc(C(=O)O)cc3c2[C@@H](CCO)N(S(=O)C(C)(C)C)C3)c1 (some centres not stated)	23.8	6.0	17.8	1.0
3	CC(=O)NCCNC(=O)Cn1nnc(-c2ccccc2)c1COc1ccc2ccccc2c1	-0.9	-1.2	-13.7	0.3
4	CC(C)NC(=O)N[C@H]1C=C[C@@H](CC(=O)NCc2ccc(Oc3ccccc3)cc2)O[C@H]1CO	-4.2	1.5	-4.4	-1.8
5	C[C@@H]1CN([C@@H](C)CO)S(=O)(=O)c2ccc(C#Cc3ccc(F)cc3)cc2O[C@H]1CN(C)C(=O)NC1CCCC1	-4.5	2.3	-11.7	-1.6
6	C[C@@H]1CCCCO[C@H](CN(C)S(=O)(=O)c2ccccc2)[C@H](C)CN([C@@H](C)CO)C(=O)c2cc(NS(=O)(=O)c3ccccc3)ccc2O1	-5.5	0.9	-4.4	2.2
7	COc1ccccc1-c1cnc2c(c1)C(=O)N([C@H](C)CO)C[C@H](C)[C@@H](CN(C)Cc1ccc(F)cc1)O2	-2.8	1.2	-4.3	4.5
8	O=C(C[C@H]1CC[C@H]2[C@@H](COC[C@@H](O)CN2C(=O)c2ccncc2)O1)Nc1ccc(-c2ccccc2)cc1	-4.1	0.5	1.4	-1.1
9	C[C@@H]1CCCCO[C@@H](CN(C)S(=O)(=O)c2ccc(F)cc2)[C@H](C)CN([C@H](C)CO)C(=O)c2cc(NC(=O)Nc3ccc4c(c3)OCO4)ccc2O1	1.7	-2.2	4.8	1.9
10	O=C(C[C@H]1C=C[C@H](NC(=O)C2CCOCC2)[C@H](CO)O1)NCC1CCCCC1	-7.5	1.4	-3.7	-1.3
11	COc1cccc(NC(=O)C2(C)CCN2Cc2ccc(SC)cc2)c1 (configuration not stated)	-10.8	-6.6	-55.4	-1.9
12	CO[C@H](C(=O)N(C)C[C@H]1OCc2ccccc2-c2c(n(C)c3ccccc23)C(=O)N([C@@H](C)CO)C[C@H]1C)c1ccccc1	-0.8	0.0	-11.1	2.8
13	O=C(C[C@H]1C[C@@H]2c3cc(NC(=O)NC4CCCCC4)ccc3O[C@@H]2[C@@H](CO)O1)NCc1ccccn1	-2.0	-1.9	-0.4	0.1
14	CS(=O)(=O)c1cccc(OCCCN2CCC(C(O)(c3ccccc3)c3ccccc3)CC2)c1	6.6	9.4	-2.7	1.3
15	CCCCC(=O)N(C)c1c(C)nc2ccc(C(=O)N3CCCCC3)cn12	8.4	0.5	16.8	-3.0
16	C[C@@H]1CN([C@H](C)CO)C(=O)c2cccc(NC(=O)C3CCCCC3)c2O[C@@H]1CN(C)S(=O)(=O)c1ccccc1	-0.5	-1.4	-3.2	-6.7
17	C[C@@H]1CCCCO[C@H](CN(C)Cc2ccccc2)[C@@H](C)CN([C@H](C)CO)C(=O)c2cc(NC(=O)c3ccccc3)ccc2O1	3.4&2.5	-3.0&-2.2	4.5&3.1	4.7
18	C[C@H]1CCCCO[C@H](CN(C)S(=O)(=O)c2cccs2)[C@@H](C)CN([C@@H](C)CO)C(=O)c2cc(NC(=O)CCC(F)(F)F)ccc2O1	-0.8	2.2	-7.7	1.1
19	Cc1cc(F)ccc1C(O)c1ncc(-c2ccc(Oc3ccccc3)cc2)[nH]1 (configuration not stated)	-60.6	-17.5	-77.8	5.7
20	Cc1ccc(S(=O)(=O)N[C@H]2C=C[C@@H](CC(=O)NCCN3CCCCC3)O[C@@H]2CO)cc1	4.7	0.0	-2.6	1.8
21	COc1ccc(S(=O)(=O)Nc2ccc3c(c2)CC(=O)N([C@H](C)CO)C[C@H](C)[C@@H](CN(C)S(=O)(=O)c2cccs2)O3)cc1	-8.3	2.6	-8.6	-0.8
22	CCCNC(=O)[C@H]1[C@H](CO)[C@H]2Cn3c(ccc(-c4cccc(OC)c4)c3=O)[C@@H]1N2C(=O)NCCC	2.4	-4.7	-0.2	-1.7
23	Cc1ccc(S(=O)(=O)N(C)C[C@H]2Oc3ccc(NC(=O)Nc4ccccc4)cc3C(=O)N([C@@H](C)CO)C[C@@H]2C)cc1	1.6	8.1	-7.2	2.5
24	COc1ccccc1-c1ccc2n(c1=O)C[C@H]1[C@H](CO)[C@@H](C(=O)NC3CCC3)N(C(=O)NC(C)C)[C@@H]21	1.8	1.6	8.1	-2.7
25	COC(=O)C[C@@H]1CC[C@@H]2[C@@H](COc3ccc(NC(=O)Nc4cccc(F)c4)cc3C(=O)N2C)O1	-1.6	5.8	-6.5	1.5
26	Cc1ccc(S(=O)(=O)N(C)C[C@H]2Oc3ccc(NS(=O)(=O)c4ccccc4)cc3C(=O)N([C@H](C)CO)C[C@H]2C)cc1	-5.1	5.3	-2.8	-0.3
27	C[C@@H]1CN([C@H](C)CO)C(=O)c2cccc(NS(=O)(=O)c3ccccc3)c2O[C@@H]1CN(C)Cc1ccc(Cl)c(Cl)c1	-0.3	-5.0	-7.1	6.4
28	CCNC(=O)C[C@H]1CC[C@@H]2[C@@H](COc3ccc(NC(=O)C4CCCCC4)cc3C(=O)N2C)O1	1.1	1.2	1.8	-1.2
29	CC(C)NC(=O)Nc1ccc2c(c1)C(=O)N([C@H](C)CO)C[C@@H](C)[C@@H](CN(C)S(C)(=O)=O)O2	0.6	-2.4	-0.4	-3.6
30	Cc1noc(C)c1S(=O)(=O)Nc1ccc2c(c1)CC(=O)N([C@@H](C)CO)C[C@H](C)[C@@H](CN(C)Cc1ccc(Cl)c(Cl)c1)O2	-1.6	-0.1	-1.7	2.5

Other entries.
cpd	Molecule	Ecoli rRNA inh	Ecoli rRNA inh RFP	Ecoli rRNA inh OD600	MLL AF4-AF9 inh
31	C[C@@H]1CN([C@H](C)CO)C(=O)Cc2cc(NS(=O)(=O)c3cccs3)ccc2O[C@@H]1CN(C)Cc1ccc(-c2ccccc2)cc1	-1.1	1.6	-1.7	0.8
32	O=C(O)C[C@@H]1C=C[C@@H](NC(=O)Nc2cc(F)ccc2F)[C@@H](CO)O1	0.7	-0.9	-5.8	-0.5
33	CCCC#Cc1ccc2c(c1)O[C@@H](CN(C)CCC)[C@@H](C)CN([C@@H](C)CO)S2(=O)=O	4.0	-2.5	4.7	3.5
34	C[C@H](CO)N1C[C@H](C)[C@H](CN(C)S(=O)(=O)c2cn(C)cn2)Oc2ncc(C3=CCCCC3)cc2C1=O	1.0	-0.5	19.6	-5.1
35	COc1ccc(C(O)c2nc(-c3ccc(Cl)cc3)cs2)cc1 (configuration not stated)	-59.2	-20.8	-77.8	-2.8
36	CC(C)NC(=O)N(C)C[C@H]1Oc2c(NS(=O)(=O)c3ccccc3)cccc2C(=O)N([C@@H](C)CO)C[C@@H]1C	1.2	-2.5	-0.1	-2.6
37	O=C(C[C@H]1C[C@@H]2c3cc(NS(=O)(=O)c4ccccc4)ccc3O[C@@H]2[C@@H](CO)O1)N1CCCCC1	-2.6	-2.2	-4.4	0.8
38	C[C@H](CO)N1C[C@H](C)[C@@H](CN(C)Cc2ccc(C(F)(F)F)cc2)Oc2ccc(NC(=O)Cn3cnnn3)cc2C1=O	2.2	0.2	-2.9	0.3
39	COc1ccc(S(=O)(=O)NC(=O)C2(C)CCN2C(=O)CC2CCCC2)cc1 (configuration not stated)	15.6	-3.0	13.7	-6.3
40	COc1ccccc1-c1cn(CC[C@H]2CC[C@H](NS(=O)(=O)c3ccccc3C)[C@@H](CO)O2)nn1	-6.1	1.6	-12.1	-9.9
41	COc1ccccc1C(O)c1ncc(-c2cccc(C(F)(F)F)c2)[nH]1 (configuration not stated)	-2.5	-1.6	-20.6	8.1
42	C[C@@H]1CN([C@@H](C)CO)C(=O)Cc2cc(N(C)C)ccc2O[C@@H]1CN(C)Cc1ccc(C(=O)O)cc1	1.5	-2.7	3.3	-10.1
43	CC(C)NC(=O)C1(C)Cc2c(-c3cccc(C(F)(F)F)c3)ccnc2O1 (configuration not stated)	-4.0	-2.3	-12.3	-1.2
44	O=C(C[C@@H]1CC[C@H]2[C@@H](COC[C@@H](O)CN2C(=O)Nc2ccc(F)cc2)O1)NCCc1ccccc1	-0.2	-2.2	-1.0	0.0
45	COC(=O)C1(C)CCc2c(ccc3ccccc23)C1=O (configuration not stated)	-4.5	-5.2	-3.0	-5.3
46	Cc1ccccc1S(=O)(=O)NCC[C@H]1CC[C@@H](NC(=O)Nc2cccc(Cl)c2)[C@@H](CO)O1	-7.2	12.3	-18.9	0.9
47	C[C@H]1CN([C@@H](C)CO)C(=O)c2cccc(NS(=O)(=O)c3cn(C)cn3)c2O[C@@H]1CN(C)Cc1ccc(Cl)c(Cl)c1	-2.2	-1.1	-6.2	1.5
48	CCC(=O)Nc1ccc2c(c1)C(=O)N(C)C[C@@H](OC)[C@@H](C)CN(C(=O)c1ccncc1)[C@H](C)CO2	2.2	-1.2	7.8	1.3
49	C[C@@H]1CN([C@H](C)CO)C(=O)Cc2cc(NC(=O)Cc3cn(C)c4ccccc34)ccc2O[C@@H]1CN(C)S(=O)(=O)c1cn(C)cn1	0.0	1.9	-0.1	1.9
50	CCCCc1c(-c2ccccc2OC)ncn1Cc1cc(F)cc(F)c1	-22.6	0.5	-56.8	7.8
51	Cc1ccc(F)cc1C(=O)N1CCC1(C)C(=O)O (configuration not stated)	7.9	-2.1	16.4	-1.9
52	CCCC(=O)Nc1ccc2c(c1)OC[C@H](C)N(C(=O)c1cnccn1)C[C@@H](C)[C@H](OC)CN(C)C2=O	0.9	-0.8	4.1	-0.4
53	CCC(=O)Nc1ccc2c(c1)C(=O)N(C)C[C@H](OC)[C@H](C)CN(C(=O)Cc1ccccn1)[C@@H](C)CO2	-0.6	-0.9	-1.6	0.3
54	C[C@@H]1CN([C@H](C)CO)S(=O)(=O)c2ccc(C3=CCCC3)cc2O[C@H]1CN(C)C(=O)Nc1ccc2c(c1)OCO2	13.2	-0.8	-0.7	15.8
55	O=C(c1ccccc1)N1C[C@@H]2[C@H](c3ccccc31)[C@H](CO)N2C(=O)c1cccc(F)c1	-1.2	-0.8	13.2	-1.0
56	C[C@@H]1CN([C@@H](C)CO)S(=O)(=O)c2ccc(C#Cc3cccc(F)c3)cc2O[C@H]1CN(C)C(=O)NC1CCCCC1	-0.4	2.2	5.4	-3.1
57	CC(=O)N1[C@H](CN(C)C(=O)CN2CCOCC2)[C@@H](c2ccccc2)[C@@H]1CO	2.4	-0.3	-10.7	-2.3
58	COc1ccc(CN(C)C[C@H]2OCCCC[C@H](C)Oc3ccc(NC(=O)Nc4ccc(F)cc4)cc3C(=O)N([C@@H](C)CO)C[C@H]2C)cc1	-0.1	16.3	-19.5	6.3
59	COCC(=O)N1CCC2(CC1)CN(C(=O)Cc1ccccc1)[C@H](CO)c1c2c2ccc(OC)cc2n1C	-1.8	1.2	0.8	-1.3
60	O=c1c(O)c(-c2ccccc2)oc2ccccc12	-0.1	-15.5	-4.7	10.8

Next section:
cpd	Molecule	Ecoli rRNA inh	Ecoli rRNA inh RFP	Ecoli rRNA inh OD600	MLL AF4-AF9 inh
61	Cc1ccc(S(=O)(=O)N(C)C[C@@H]2Oc3c(NC(=O)Nc4ccc5c(c4)OCO5)cccc3C(=O)N([C@@H](C)CO)C[C@H]2C)cc1	-5.8	-0.3	-14.2	-3.7
62	C[C@@H]1CN([C@H](C)CO)C(=O)Cc2cc(NS(C)(=O)=O)ccc2O[C@@H]1CN(C)Cc1ccccc1	2.7	-6.4	4.6	-2.7
63	COc1ccc(S(=O)(=O)Nc2ccc3c(c2)C(=O)N([C@@H](C)CO)C[C@@H](C)[C@H](CN(C)Cc2ccc(C(F)(F)F)cc2)OCCCC[C@H](C)O3)cc1	2.4	5.8	-5.5	2.4
64	C[C@@H]1CN([C@H](C)CO)C(=O)c2cc(NS(=O)(=O)c3ccc(F)cc3)ccc2O[C@H]1CN(C)S(=O)(=O)c1cn(C)cn1	3.4	-1.2	7.4	-3.2

Four structures already listed, sorted by length of the SMILES, smallest number first:
cpd	Molecule	Ecoli rRNA inh	Ecoli rRNA inh RFP	Ecoli rRNA inh OD600	MLL AF4-AF9 inh
60	O=c1c(O)c(-c2ccccc2)oc2ccccc12	-0.1	-15.5	-4.7	10.8
59	COCC(=O)N1CCC2(CC1)CN(C(=O)Cc1ccccc1)[C@H](CO)c1c2c2ccc(OC)cc2n1C	-1.8	1.2	0.8	-1.3
64	C[C@@H]1CN([C@H](C)CO)C(=O)c2cc(NS(=O)(=O)c3ccc(F)cc3)ccc2O[C@H]1CN(C)S(=O)(=O)c1cn(C)cn1	3.4	-1.2	7.4	-3.2
58	COc1ccc(CN(C)C[C@H]2OCCCC[C@H](C)Oc3ccc(NC(=O)Nc4ccc(F)cc4)cc3C(=O)N([C@@H](C)CO)C[C@H]2C)cc1	-0.1	16.3	-19.5	6.3
